Bioassay records from PubChem.
NOMO-1 viab – NOMO-1 AML cell viability reduction, primary screen, STK33 inhibitor project, CellTiter-Glo luminescence. NOMO-1 AML viability, 72 h. inhibition, % (concentration not given with the values). actives 7.5% (n = 37,000). AID 2330, 2010;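 active = most replicates above 80%; inconclusive = exactly half above 80%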;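 note: wells of about 30 µL received 25 nL stock; 0% = median of vehicle wells and 100% = reference inhibitor level; the first replicate is given; inactives centre near 10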
* = called active by the depositor; ? = inconclusive.

SMILES | NOMO-1 viab
CNc1cc(NC)c2ncnc3c2c1C(=O)c1ccccc1-3 | 25
Cc1ccc(S(=O)(=O)Nc2ccc3c(c2)CC(=O)N([C@H](C)CO)C[C@H](C)[C@H](CN(C)C(=O)Nc2ccc4c(c2)OCO4)O3)cc1 | 23
C[C@@H]1CN([C@H](C)CO)C(=O)c2cc(NS(=O)(=O)c3ccccc3)ccc2O[C@H]1CN(C)C(=O)Nc1ccc(F)cc1 | -4
C[C@@H]1CCCCO[C@H](CN(C)C(=O)Nc2ccc(C(F)(F)F)cc2)[C@@H](C)CN([C@H](C)CO)C(=O)c2cc(NS(=O)(=O)c3ccc(Cl)cc3)ccc2O1 | 120*
C[C@H](CO)N1C[C@H](C)[C@H](CN(C)Cc2ccncc2)Oc2c(NS(=O)(=O)c3ccc(F)cc3)cccc2C1=O | 16
C(=C\c1nn2c(C3COc4ccccc4O3)nnc2s1)/c1ccccc1 (configuration not stated) | 32
C[C@H]1CN([C@@H](C)CO)C(=O)Cc2cc(NC(=O)CCC(F)(F)F)ccc2O[C@H]1CN(C)S(=O)(=O)c1ccc(F)cc1 | 126*
C[C@@H]1CN([C@H](C)CO)C(=O)Cc2cc(NC(=O)Nc3cccc4ccccc34)ccc2O[C@H]1CN(C)Cc1ccccc1 | 8
C[C@H](CO)N1C[C@H](C)[C@H](CN(C)S(=O)(=O)c2cccs2)Oc2ccc(NC(=O)CCC(F)(F)F)cc2CC1=O | -3
COc1ccc(NC(=O)Nc2ccc3c(c2)C(=O)N([C@@H](C)CO)C[C@@H](C)[C@@H](CN(C)C)O3)cc1 | 13
CC(=O)c1cccc(NC(=O)C2CCCN(S(=O)(=O)c3ccc(Cl)cc3)C2)c1 (configuration not stated) | 23
Cc1noc(C)c1NC(=O)Nc1cccc2c1O[C@H](CN(C)S(=O)(=O)c1cn(C)cn1)[C@@H](C)CN([C@@H](C)CO)C2=O | -13
COc1cccc2cc(-c3nnc(SCC(=O)N4c5ccccc5Sc5ccccc54)n3C)oc12 | 33
c1ccc(-c2cnc3nonc3n2)cc1 | 115*
O=C(CSc1nc2sccc2c(=O)[nH]1)Nc1ccccc1 | 35

The last six records of the part above lead into the next:
SMILES | NOMO-1 viab
COc1ccc(NC(=O)Nc2ccc3c(c2)C(=O)N([C@@H](C)CO)C[C@@H](C)[C@@H](CN(C)C)O3)cc1 | 13
CC(=O)c1cccc(NC(=O)C2CCCN(S(=O)(=O)c3ccc(Cl)cc3)C2)c1 (configuration not stated) | 23
Cc1noc(C)c1NC(=O)Nc1cccc2c1O[C@H](CN(C)S(=O)(=O)c1cn(C)cn1)[C@@H](C)CN([C@@H](C)CO)C2=O | -13
COc1cccc2cc(-c3nnc(SCC(=O)N4c5ccccc5Sc5ccccc54)n3C)oc12 | 33
c1ccc(-c2cnc3nonc3n2)cc1 | 115*
O=C(CSc1nc2sccc2c(=O)[nH]1)Nc1ccccc1 | 35
C[C@@H]1CN([C@H](C)CO)C(=O)c2cccc(NC(=O)c3ccc(-c4nccs4)cc3)c2O[C@@H]1CN(C)S(C)(=O)=O | 8
C[C@H](CO)N1C[C@H](C)[C@H](CN(C)C)Oc2ccc(NC(=O)Nc3cccc4ccccc34)cc2C1=O | 5
COc1ccc(S(=O)(=O)Nc2cccc3c2O[C@H](CN(C)Cc2ccc(-c4ccccc4)cc2)[C@H](C)CN([C@H](C)CO)C3=O)cc1 | ?
CC(Oc1ccc(Cl)cc1Cl)C(=O)Nc1ccc(Cl)c(-c2nc3ncccc3o2)c1 (configuration not stated) | 5
COc1cc(OC)c2c(=O)c(O)c(-c3ccc(OC)c(OC)c3)oc2c1 | 102*
O=[N+]([O-])c1cccc(COc2ccc(-c3cnc4ccccc4n3)cc2)c1 | -30
O=C(COc1ccc(Br)cc1)Nc1cccc(-c2nc3cc(Cl)ccc3o2)c1 | 17
Cc1noc(C)c1NC(=O)N(C)C[C@H]1OCCCC[C@@H](C)Oc2ccc(NC(=O)Cc3ccccc3)cc2C(=O)N([C@H](C)CO)C[C@@H]1C | -1
COc1ccc(CN(C)C[C@H]2Oc3c(NS(=O)(=O)c4cccs4)cccc3C(=O)N([C@H](C)CO)C[C@@H]2C)cc1 | 11
CC(=O)NC(=O)C1C=C2C=CC=CC2OC1=Nc1ccc(C(F)(F)F)cc1 (configuration not stated) | 4
COc1ccc(NC(=O)Nc2ccc3c(c2)C(=O)N([C@H](C)CO)C[C@H](C)[C@H](CN(C)C(=O)Nc2ccc(OC)cc2)O3)cc1 | 13
C[C@H](CO)N1C[C@H](C)[C@@H](CN(C)S(C)(=O)=O)Oc2ccc(NC(=O)Cn3cnnn3)cc2C1=O | -10
O=C(Cn1c(-c2ccccn2)nc2ccccc21)NCc1ccccc1 | 37
COC(=O)c1ccccc1NC(=O)CSc1nnc(-c2ccccc2O)n1-c1ccccc1 | 36
O=c1oc2ccccc2cc1O | 6
C[C@@H]1CN([C@@H](C)CO)C(=O)Cc2cc(NC(=O)Nc3ccc4c(c3)OCO4)ccc2O[C@@H]1CN(C)Cc1ccc2c(c1)OCO2 | 6
N#Cc1ccsc1NC(=O)CSc1ncn[nH]1 | 21
C[C@H]1CN([C@@H](C)CO)C(=O)Cc2cc(NC(=O)CCCN(C)C)ccc2O[C@@H]1CN(C)Cc1ccc(-c2ccccc2)cc1 | 24
CCN1C(=O)/C(=C2\C=Cc3ccccc3N2CC)SC1=S | 37
C[C@H](CO)N1C[C@H](C)[C@H](CN(C)S(=O)(=O)c2ccc(Cl)cc2)Oc2c(NC(=O)Nc3ccc4c(c3)OCO4)cccc2C1=O | 3
C[C@H]1CN([C@@H](C)CO)C(=O)Cc2cc(NC(=O)Nc3ccc4c(c3)OCO4)ccc2O[C@H]1CN(C)Cc1ccccc1 | 17
CC1(C)CC(=O)C2=C(C1)NC(=O)CC2c1ccc(N(CCC#N)CCC#N)cc1 (configuration not stated) | 2
COc1ccc([C@@]2(O)c3c(ccc(/C=C/C4(C)CCC(C)(C)CO4)c3O)NC(=O)[C@@H]2OC)cc1 (some centres not stated) | 32
Cc1c(Br)ccc(NC(=O)Cn2cnc3sc4c(c3c2=O)CCCC4)c1C | 4
COc1c(C(C)C)oc2cc3oc(=O)ccc3cc12 | 18
C[C@H]1CN([C@@H](C)CO)C(=O)c2cccc(NS(=O)(=O)c3cccs3)c2O[C@@H]1CN(C)S(=O)(=O)c1ccc(Cl)cc1 | 13
Brc1ccc2[nH]c3nc(SCCN4CCOCC4)nnc3c2c1 | 11
Cc1ccc(S(=O)(=O)Nc2ccc3c(c2)CC(=O)N([C@H](C)CO)C[C@@H](C)[C@H](CN(C)Cc2ccc(C(F)(F)F)cc2)O3)cc1 | 108*
Cc1ccc(S(=O)(=O)N(C)C[C@H]2Oc3ccc(NC(=O)CCCCCC(=O)Nc4ccccc4N)cc3C(=O)N([C@@H](C)CO)C[C@@H]2C)cc1 | 14
CC(C)S(=O)(=O)c1cscc1NC(=O)Nc1ccccc1 | 23

No new results follow: entries from further up.
SMILES | NOMO-1 viab
Brc1ccc2[nH]c3nc(SCCN4CCOCC4)nnc3c2c1 | 11
Cc1ccc(S(=O)(=O)Nc2ccc3c(c2)CC(=O)N([C@H](C)CO)C[C@@H](C)[C@H](CN(C)Cc2ccc(C(F)(F)F)cc2)O3)cc1 | 108*
Cc1ccc(S(=O)(=O)N(C)C[C@H]2Oc3ccc(NC(=O)CCCCCC(=O)Nc4ccccc4N)cc3C(=O)N([C@@H](C)CO)C[C@@H]2C)cc1 | 14
CC(C)S(=O)(=O)c1cscc1NC(=O)Nc1ccccc1 | 23

(cont.)
SMILES | NOMO-1 viab
CCN(CC)C(=O)CSc1ncnc2sc(C)c(C)c12 | 28
Cc1noc(C)c1S(=O)(=O)N(C)C[C@H]1OCCCC[C@@H](C)Oc2ccc(NC(=O)NC(C)C)cc2C(=O)N([C@H](C)CO)C[C@@H]1C | 11
C[C@H]1CN([C@@H](C)CO)C(=O)c2cc(NC(=O)Nc3ccccc3)ccc2O[C@@H]1CN(C)Cc1ccc(Oc2ccccc2)cc1 | 97*
COc1ccc(S(=O)(=O)Nc2ccc3c(c2)CC(=O)N([C@@H](C)CO)C[C@H](C)[C@H](CN(C)Cc2ccncc2)O3)cc1 | 12
Cc1noc(C)c1NC(=O)N(C)C[C@@H]1Oc2ccc(NC(=O)CCN3CCOCC3)cc2CC(=O)N([C@H](C)CO)C[C@@H]1C | 26
COc1ccc(C)cc1S(=O)(=O)NCc1ccncc1 | 24
Cc1noc(C)c1S(=O)(=O)N(C)C[C@H]1Oc2ccc(NC(=O)NC3CCCCC3)cc2CC(=O)N([C@@H](C)CO)C[C@@H]1C | 7
C[C@H]1CN([C@@H](C)CO)C(=O)c2cccc(NC(=O)Nc3ccc(F)cc3)c2O[C@@H]1CN(C)S(C)(=O)=O | 3
C[C@@H]1CCCCO[C@@H](CN(C)C(=O)Nc2ccc(F)cc2)[C@@H](C)CN([C@H](C)CO)C(=O)c2cc(NS(=O)(=O)c3cccs3)ccc2O1 | 9
C[C@H](CO)N1C[C@H](C)[C@H](CN(C)Cc2ccc(C(F)(F)F)cc2)Oc2ccc(NC(=O)Nc3ccc(F)cc3)cc2CC1=O | 113*
C[C@H]1CN([C@@H](C)CO)C(=O)Cc2cc(NS(=O)(=O)c3ccccc3)ccc2O[C@@H]1CN(C)C(=O)Nc1ccccc1 | 5
O=C1c2cccc3cccc(c23)C(=O)N1CCCSc1ncn[nH]1 | 31
CCOC(=O)N1CCc2c(sc3ncn(Cc4ccc(Cl)cc4)c(=O)c23)C1 | 51
C[C@@H]1CN([C@H](C)CO)C(=O)c2cccc(NS(=O)(=O)c3ccc(F)cc3)c2O[C@H]1CN(C)Cc1ccccc1 | 44
C[C@@H]1CN([C@@H](C)CO)C(=O)c2cc(NS(C)(=O)=O)ccc2O[C@@H]1CN(C)S(C)(=O)=O | 10
C[C@H]1CN([C@@H](C)CO)C(=O)c2cc(NS(=O)(=O)c3cccs3)ccc2O[C@H]1CN(C)S(=O)(=O)c1ccc(F)cc1 | 18
Cc1c(O)c(=O)n(-c2ccccc2)n1C | 12
Cc1noc(C)c1NC(=O)Nc1ccc2c(c1)CC(=O)N([C@@H](C)CO)C[C@H](C)[C@@H](CN(C)Cc1ccccc1)O2 | -4
Cc1noc(C)c1NC(=O)Nc1ccc2c(c1)C(=O)N([C@H](C)CO)C[C@H](C)[C@@H](CN(C)CC1CCCCC1)O2 | -1
C[C@@H]1CN([C@@H](C)CO)C(=O)c2cc(NS(=O)(=O)c3ccc(Cl)cc3)ccc2O[C@@H]1CN(C)Cc1ccc(C(=O)O)cc1 | 0
COCCN=c1c([N+](=O)[O-])nn(-c2ccccc2)n1O | 20
O=C1CC(c2ccc(O)cc2)Oc2cc(O)cc(O)c21 (configuration not stated) | 19
C[C@@H]1CN([C@H](C)CO)C(=O)c2cccc(N(C)C)c2O[C@H]1CN(C)S(=O)(=O)c1ccc(Cl)cc1 | 7
COc1ccc(S(=O)(=O)Nc2ccc3c(c2)C(=O)N([C@H](C)CO)C[C@@H](C)[C@@H](CN(C)S(=O)(=O)c2cccs2)O3)cc1 | 6
Cc1c(NS(=O)(=O)c2cccc3nonc23)c(=O)n(-c2ccccc2)n1C | 24
CC(C)(C)c1cc(C(F)(F)F)c(C#N)c(SCC(=O)Nc2sc3c(c2C#N)CCCC3)n1 | 97*
Cc1cc(C(=O)Nc2cccc3c2O[C@H](CN(C)C(=O)Nc2c(C)noc2C)[C@H](C)CN([C@H](C)CO)C3=O)n(C)n1 | -7
C[C@H](CO)N1C[C@H](C)[C@H](CN(C)CC2CCCCC2)Oc2c(NC(=O)C3CCOCC3)cccc2C1=O | 3
COc1ccccc1NC(=O)Cn1cnc2ccccc2c1=O | 10
O=c1oc(Cl)c(Cl)c2ccccc12 | 119*
Cc1c(F)cccc1NC(=O)C1CC=CCC1C(=O)O (configuration not stated) | 2
COc1ccc(NC(=O)N(C)C[C@@H]2Oc3ccc(NC(=O)Cc4cn(C)c5ccccc45)cc3C(=O)N([C@@H](C)CO)C[C@@H]2C)cc1 | 22
C[C@@H]1CCCCO[C@@H](CN(C)Cc2ccc(C(F)(F)F)cc2)[C@@H](C)CN([C@H](C)CO)C(=O)c2cc(NC(=O)C3CCCCC3)ccc2O1 | 108*
C[C@@H]1CN([C@H](C)CO)C(=O)Cc2cc(NS(=O)(=O)c3cccs3)ccc2O[C@H]1CN(C)S(=O)(=O)c1ccc(F)cc1 | 27
Cc1nc2ccccc2n1CC(O)COc1ccc(C2C=CCC2)cc1 (configuration not stated) | 85*
C[C@H]1CN([C@@H](C)CO)C(=O)c2cc(NS(C)(=O)=O)ccc2O[C@@H]1CN(C)S(=O)(=O)c1ccc(Cl)cc1 | -5
COc1ccc(CN(C)C[C@@H]2Oc3ccc(NS(=O)(=O)c4cn(C)cn4)cc3CC(=O)N([C@@H](C)CO)C[C@@H]2C)cc1 | 18
C[C@@H]1CN([C@H](C)CO)C(=O)Cc2cc(NS(=O)(=O)c3ccc(Cl)cc3)ccc2O[C@@H]1CN(C)S(=O)(=O)c1cccs1 | 25
CCn1c(=O)c2c(n3c(SCC(N)=O)nnc13)-c1ccccc1CC21CCCCC1 | 99*
C=CCn1c(-c2nonc2NC(=O)CC)nc2ccccc21 | -2
COC(=O)C(NC(=O)c1ccc([N+](=O)[O-])o1)C(C)C (configuration not stated) | 113*
C[C@H]1CN([C@@H](C)CO)C(=O)c2cc(N(C)C)ccc2O[C@@H]1CN(C)CC1CCCCC1 | 15
Cc1noc(C)c1S(=O)(=O)N(C)C[C@@H]1Oc2ccc(NC(=O)Nc3cccc4ccccc34)cc2CC(=O)N([C@H](C)CO)C[C@@H]1C | 24
C[C@H](CO)N1C[C@H](C)[C@@H](CN(C)C(=O)Nc2ccc(F)cc2)Oc2ccc(NS(=O)(=O)c3cn(C)cn3)cc2C1=O | -4
CC(C)c1ccc(S(=O)(=O)CC#N)cc1 | -10

Only part of the results is shown; rates above refer to the full screens.
